Calb biofilm kill – mixtures killing C. albicans biofilm | inhibition, % at 7.6 µM | 0.02% of 120,000 active | C. albicans biofilm persisters + clotrimazole, fluorescence viability; primary screen in compound mixtures of four per well;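 active = inhibition above 30.3% in the primary screen of four-compound pools, then above 30% when the compound was retested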;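 also: compounds exposed to preformed 24 h biofilms for 48 h; the number belongs to the whole pool; some results filed as inactive read as strong as hits; inactives centre near 12; 0% = biofilm with clotrimazole alone and 100% = kill control; retested singly at about 60 µM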
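Assay system: C. albicans biofilms / Medium: RPMI/MOPS medium, pH 7.0 / Schedule: biofilm formation 24 h, compound exposure 48 h, 37 °C / Measured by: Alamar Blue fluorescence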
* = called active by the depositor; & = joins results of further samples.

SMILES | Calb biofilm kill
CCOCCCNC(=O)C1CCC(CNS(=O)(=O)c2ccc(OC)cc2)CC1 (configuration not stated) | 9
COc1cccc(C(=O)C2CCCN(Cc3cn[nH]c3C3CCCCC3)C2)c1 (configuration not stated) | 11
O=C(Cc1ccc([N+](=O)[O-])cc1)Nc1nccs1 | 21
CCOc1c(Cl)cc(CNc2ccc(N3CCCC3)cc2)cc1OC | 15
CCOC(=O)c1c(NC(=O)CSc2c[nH]c3ccccc23)sc2c1CCC2 | 13
O=C(Nc1ccc(Oc2cccc(C(F)(F)F)c2)nc1)c1ccco1 | 16
CC(c1ccccc1)N1CCC(CNC(=S)Nc2cccc(Cl)c2)C1 (configuration not stated) | 13
CC(=O)NCCc1nc2ccccc2n1CCc1ccccc1 | 29
CC(=O)N1N=C(c2ccc(NS(C)(=O)=O)cc2)CC1c1ccc2nccnc2c1 (configuration not stated) | -2
Cc1ccsc1/C=N/n1c(-c2ccccc2)n[nH]c1=S | 2
NNC(=O)CN1C(c2ccc(Br)cc2)=Nc2ccc(Br)cc2C1c1ccccc1 (configuration not stated) | 19
CCCCCOC(=O)c1[nH]c2c(c1C)C(=O)CC(c1ccco1)C2 (configuration not stated) | 8
Cc1noc(C)c1COC(=O)[C@@H](NC(=O)c1ccccc1)C(C)C | 16
O=C(N/N=C/c1ccccn1)c1ccc(Br)cc1 | 20
CCCOc1ccc(N2C(=O)CC(NCc3ccc(S(N)(=O)=O)cc3)C2=O)cc1 (configuration not stated) | 24
CCn1cnc2c1c(=O)n(CC(=O)NCc1ccccc1)c(=O)n2Cc1ccccc1 | 17
CC(C)[C@H](NC(=O)c1ccco1)C(=O)OCC(=O)Nc1ccccc1OC(F)F | 19
CC(/C=N/NC(=O)c1cc(-c2cccn2C)n[nH]1)=C\c1ccccc1 | 4
COc1ccc(/C=C2/C(=O)N(c3nc4ccccc4s3)N=C2CSc2ccc(Cl)cc2)cc1 | 13
CCN(CC)c1ccc(-c2n[nH]c(=S)n2-c2ccccc2)cc1 | 10
CCOC(=O)c1cc(NC(=O)c2cccs2)ccc1N1CCOCC1 | 7
COC(=O)CSC(C)C(=O)Nc1nnc(C(C)C)s1 (configuration not stated) | 18
COC(=O)c1ccc(C23CC4(C2)[C@H](CN(Cc2ccc(C(F)(F)F)cc2)[C@@H]4c2ccccc2)C3c2ccccc2)cc1 (some centres not stated) | -1
CCOC(=O)c1ccc(S(=O)(=O)N2CCN(C(C)=O)CC2)cc1 | 11
CC(/C=N/NC(=O)c1cccs1)=C\c1ccccc1 | 9
Nn1c(Cc2cccc3ccccc23)nnc1SCCOc1ccc(F)cc1 | 3
COc1ccccc1C1CCN(Cc2c(C)[nH]c3ccccc23)CC1 | 19
Cc1nnc(SCC(=O)NC(=O)NCCC(C)C)s1 | 2
NS(=O)(=O)c1ccc(NC(=O)N[C@@H](Cc2ccccc2)C(=O)O)cc1 | 18
CCOc1ccccc1CNC(=O)c1nn(CC)cc1[N+](=O)[O-] | 13
OCC1CCCN(C(=S)Nc2ccc(OC(F)F)cc2)C1 (configuration not stated) | 12
Cc1nc2ccc(Cl)cc2c(-c2ccccc2)c1CC(=O)O | 13
CC(=O)NCCNC(=O)C1CCCCN1S(=O)(=O)c1ccccc1 (configuration not stated) | 6
O=C(COC(=O)CCN=C1NS(=O)(=O)c2ccccc21)NC1CCCCCCC1 | 15
CC(Sc1nc2cc([N+](=O)[O-])ccc2n1-c1cccc(C(F)(F)F)c1)C(=O)NC(N)=O (configuration not stated) | 10
CC(NC(=O)COC(=O)Cc1ccc(-c2ccccc2)cc1)c1ccccc1 (configuration not stated) | -3
O=C(COC(=O)COc1ccc(Cl)cc1)Nc1ccc(F)c([N+](=O)[O-])c1 | 5
COC(=O)C1=C(O)CSC1=Nc1ccc(C)cc1 | 17
CNC(=S)Nc1ccc(-c2nc3ccc(C)cc3s2)cc1 | 0
CC(=O)Oc1ccc(Cl)cc1/C=C/c1cc(OC(C)=O)c2ccccc2n1 | 7
C=C1c2cc(C)c(C)cc2NC(=O)N1c1ccccc1 | 11
C#CCNC(=O)C1CCN(c2ccc(S(=O)(=O)N3CCOCC3)cc2Cl)CC1 | 20
Cc1cc(S(=O)(=O)N2CCCC2)ccc1OCC(=O)N1CCC(C(N)=O)CC1 | 3
C=CCNC(=O)CCC(=O)NNc1nc2ccccc2c2nc(-c3ccccc3)nn12 | 13
N#C/C(=C\c1sc(N2CCOCC2)nc1-c1ccccc1)C(=O)Nc1cccc2ccccc12 | 17
CCc1ccc(NC(=O)c2ccccc2Br)cc1 | 1
CCOC(=O)c1c(-c2ccc(C)o2)csc1NC(=S)NC(=O)c1ccc(F)cc1 | 3
NC(=O)Nc1ccc(Oc2ncc(C(F)(F)F)cc2Cl)cc1 | 6
CCOc1ccc(C(=O)Nc2nc(C)c(C(=O)OC)s2)cc1 | 13
Cc1cc(Cl)ccc1C(=O)C1CCCN(C(=O)CCN2CCCO2)C1 (configuration not stated) | 5

(next part)
SMILES | Calb biofilm kill
Cc1nn(CC(=O)Nc2nccs2)c(C)c1[N+](=O)[O-] | -4
CC(C)CC(=O)NC(=S)Nc1cc(C(F)(F)F)ccc1N1CCOCC1 | 18
O=C(NCC1CCCO1)C1CCN(C2CCN(C(=O)CC3CCCC3)CC2)CC1 (configuration not stated) | 9
Cc1ccc(-c2nnc(SCC(=O)Nc3sc(C)c(C)c3C#N)n2C)cc1 | 9
CCn1nc(C)c(/C=N/NC(=O)Cc2ccc(Cl)cc2)c1C | 23
O=C(N/N=C/C(Cl)=C/c1ccc([N+](=O)[O-])cc1)C(=O)Nc1cccc(C(=O)O)c1 | 16
C/C(=N\Nc1ncc(Cl)cc1Cl)c1cccs1 | 8
Cc1ccc(-c2nnc(CSc3nc(C(C)C)nc4sc(C)c(C)c34)o2)cc1 | 12
COC(=O)c1c(NC(=O)c2ccc(OC(C)C)cc2)sc2c1CC(C)(C)NC2(C)C | 0
CC(C)C1CC(C(F)(F)F)n2nc(C(=O)O)cc2N1 (configuration not stated) | 11
C/C(=N/N1CCN(Cc2cccc3ccccc23)CC1)c1cccnc1 | 17
O=C(COC(=O)c1cc(=O)[nH]c(=O)[nH]1)Nc1cccc(S(=O)(=O)N2CCOCC2)c1 | 7
CSc1cccc(NC(=S)N(Cc2ccc(C)cc2)Cc2ccccn2)c1 | 2
CCc1nnc(NC(=O)CSc2nnc(-c3ccccc3O)o2)s1 | 28
Cc1nc(-c2cccc(NC(=O)C3CCCCC3)c2)cs1 | 10
O=C(O)c1c(-c2ccccc2)c(-c2ccccc2)nc2ccccc12 | -1
CCN1CCN(C(=S)Nc2cc(S(=O)(=O)N(CC)CC)ccc2C)CC1 | 14
CC(C)(C)C1CCc2c(sc3ncn(N)c(=N)c23)C1 (configuration not stated) | 22
Cc1cc(C)nc(Nc2nc3ccccc3s2)n1 | 19
Cc1ccc(Nc2nc(N)c([N+](=O)[O-])c(N3CCOCC3)n2)cc1 | 21
O=C(NCc1ccc(OC(F)(F)F)cc1)C1CC(c2ccccc2C(F)(F)F)=NO1 (configuration not stated) | 15
CC(C)CC(NC(N)=O)C(=O)Nc1ccc2c(c1)OCO2 (configuration not stated) | 12
NS(=O)(=O)c1ccc(NC(=S)NC(=O)c2cccnc2)cc1 | 1
O=C(/C=C/c1cccs1)Nc1ccncc1 | 10
CCc1cc(=O)[nH]c(-n2[nH]c(-c3ccccc3)cc2=O)n1 | 13
CC1=C(C(=O)N2CCOCC2)C(c2ccc(-c3ccccc3)cc2)NC(=S)N1 (configuration not stated) | 11
Cc1ccc(C(C)C)c(OCC(=O)Nn2c(=O)[nH]c3ccccc3c2=O)c1 | -9
Cc1ccc(N2C(=O)[C@@H]3[C@H](C2=O)C2c4ccccc4C=NN2[C@@H]3C(=O)c2ccc(Cl)cc2)cc1 (some centres not stated) | 14
O=C1N/C(=C\c2nc3ccccc3s2)c2ccccc21 | 16
C=CCC1(N(C(C)=O)c2ccccc2)CCCCC1 | 1
COc1ccc(N/C(C)=C/C(=O)c2ccccc2)cc1 | 10
CCOc1ccc(C2=NNC(c3cccs3)=Nc3ccc(OC)cc32)cc1 | 14
Cn1cccc1/C=N/NC(=O)CNc1cccc2ccccc12 | 8
Cc1cccc(N2CCN(c3nnc(C(F)(F)F)s3)CC2)c1 | 16
Nc1cc(=O)[nH]c(=O)n1Cc1ccccc1 | 18
CCOc1cccc2cc(-c3nnc(NCc4ccc5c(c4)OCO5)s3)c(=O)oc12 | 17
Cc1cccc(N2CCN(c3nc4nonc4nc3N3CCSCC3)CC2)n1 | 17
COc1cc(/C=N/NC(=O)Cn2ccc(C(F)(F)F)n2)cc(OC)c1OC | 4
CC/C(Cc1ccccc1)=N\NC(=O)c1cc([N+](=O)[O-])cc([N+](=O)[O-])c1 | 29
Cc1ccccc1NC(=O)COC(=O)CCc1ccccc1 | 16
O=C1C2CC=CCC2C(=O)N1c1ccc(N2CCN(c3ccccn3)CC2)c([N+](=O)[O-])c1 (configuration not stated) | 4
CC(=O)c1c(C)[nH]c(C(=O)OCC(=O)Nc2cccc(S(=O)(=O)N(C)C)c2)c1C | 13
CCOc1cc(C(=O)Nc2c(C)ccc3nsnc23)cc(OCC)c1OCC | 16
COc1cccc(-c2nnc(-c3ccco3)o2)c1 | 12
CCOc1ccc(/C=C/C(=O)Nc2ccc(C(N)=O)cc2)cc1OC | 16
CCCCn1c(N)c(N(CCOC)C(=O)CN2c3ccccc3CC2C)c(=O)[nH]c1=O (configuration not stated) | 12
CCCCOC(=O)c1ccc(NC(=O)COC(=O)CSc2nc(C)cc(C)n2)cc1 | 12
O=C(COC(=O)c1cc(=O)[nH]c2ccccc12)NC1CCCC1 | 6
C/C(CC(=O)Nc1cccc(Cl)c1Cl)=N\NC(=O)c1ccccc1Br | 18
COc1ccc2nc(C)cc(N3CCC(C(N)=O)CC3)c2c1 | 10

Other entries follow.
SMILES | Calb biofilm kill
CCOC(=O)C(NC(=O)c1cccc(Cl)c1)(OCc1ccccc1)C(F)(F)F (configuration not stated) | -2
O=C(Nc1ccc(Cl)c(C(F)(F)F)c1)C(=O)N1CCCCC1 | 7
Cc1nc(SCC(=O)NC(C)(C#N)C2CC2)c2c(-c3cccs3)csc2n1 (configuration not stated) | 10
COCCNc1ccnc2c(Cl)cccc12 | 18
O=[N+]([O-])c1ccc(-c2nc(NCC3CCCO3)c3ccccc3n2)cc1 (configuration not stated) | 7
CCc1ccc(CN(C)CC(=O)Nc2ccc3c(c2)CCC3)cc1 | -6
COc1ccc2c(c1)-c1nc(/N=C/c3c(O)ccc4ccccc34)sc1CC2 | 3
C/C(=N\OCC(=O)Nc1c(C)cc(C)cc1C)c1ccc2c(c1)OCCO2 | -1
O=C(Cn1nc(-c2ccc3c(c2)OCCO3)ccc1=O)Nc1ccc(N2CCOCC2)cc1 | 7
Cc1nnc(SCC(=O)NNC(=O)c2ccc(Br)cc2)n1C | 10

Of the compounds above, 14 contain two or more sulfur atoms:
SMILES | Calb biofilm kill
CCOC(=O)c1c(NC(=O)CSc2c[nH]c3ccccc23)sc2c1CCC2 | 13
Cc1ccsc1/C=N/n1c(-c2ccccc2)n[nH]c1=S | 2
COc1ccc(/C=C2/C(=O)N(c3nc4ccccc4s3)N=C2CSc2ccc(Cl)cc2)cc1 | 13
COC(=O)CSC(C)C(=O)Nc1nnc(C(C)C)s1 (configuration not stated) | 18
Cc1nnc(SCC(=O)NC(=O)NCCC(C)C)s1 | 2
CNC(=S)Nc1ccc(-c2nc3ccc(C)cc3s2)cc1 | 0
CCOC(=O)c1c(-c2ccc(C)o2)csc1NC(=S)NC(=O)c1ccc(F)cc1 | 3
Cc1ccc(-c2nnc(SCC(=O)Nc3sc(C)c(C)c3C#N)n2C)cc1 | 9
Cc1ccc(-c2nnc(CSc3nc(C(C)C)nc4sc(C)c(C)c34)o2)cc1 | 12
CSc1cccc(NC(=S)N(Cc2ccc(C)cc2)Cc2ccccn2)c1 | 2
CCc1nnc(NC(=O)CSc2nnc(-c3ccccc3O)o2)s1 | 28
CCN1CCN(C(=S)Nc2cc(S(=O)(=O)N(CC)CC)ccc2C)CC1 | 14
NS(=O)(=O)c1ccc(NC(=S)NC(=O)c2cccnc2)cc1 | 1
Cc1nc(SCC(=O)NC(C)(C#N)C2CC2)c2c(-c3cccs3)csc2n1 (configuration not stated) | 10

Continuation.
SMILES | Calb biofilm kill
N=C(N)SCc1nc2ccccc2c(=O)n1-c1ccccc1 | 3&9
CCCCC(C(=O)O)C(C)CC(=O)Nc1nncs1 (configuration not stated) | 28
CCC(=O)N1CCc2cc(S(=O)(=O)CCC(=O)Nc3cccc(C)n3)ccc21 | 14
CNc1c([N+](=O)[O-])cnn1-c1ccc(F)cc1 | 14
O=C(CC1C(=O)NCCN1Cc1ccc(-c2ccccc2)cc1)NCCOc1cccnc1 (configuration not stated) | 18
CC(CNc1ccccc1O)C(=O)O (configuration not stated) | 10
COC(=O)c1c(NC(=O)CCNCc2ccco2)sc2c1CCC2 | 10
CC(C)=CCCC1(C)C=Cc2c(ccc3c2[nH]c2cc(O)c(C)cc23)O1 (configuration not stated) | 2
CCCCOCCCNC(=O)c1cccc(OC)c1 | 0
Cc1cc(NC(=O)CCN2C(=O)/C(=C\c3ccccc3Cl)SC2=S)no1 | 7

Next section; it opens with the two that closed the last part.
SMILES | Calb biofilm kill
CCCCOCCCNC(=O)c1cccc(OC)c1 | 0
Cc1cc(NC(=O)CCN2C(=O)/C(=C\c3ccccc3Cl)SC2=S)no1 | 7
Cc1ccc(C(=O)NCCNc2ccc([N+](=O)[O-])cc2C(F)(F)F)cc1 | 6
Cc1ccccc1-n1c(=O)cc(N2CCC3(CC2)OCCO3)[nH]c1=O | 12
CCN(CC)S(=O)(=O)c1ccc(C)c(NC(=S)NNC(=O)C2CC2)c1 | 8
CCCCC(CC)CNC(=O)/C=C/c1ccc(F)cc1 (configuration not stated) | 16
CC(=O)Cc1nsc(NC(=O)c2ccc(F)cc2)n1 | 6
CC1C(=O)C(C)C(c2ccc([N+](=O)[O-])cc2)NC1c1ccc([N+](=O)[O-])cc1 (configuration not stated) | 4
COc1ccc(CCC(=O)Nc2ccccc2C(F)(F)F)cc1 | 13
O=C(Cc1cccs1)N1CCN(c2ccc(F)cc2)CC1 | 19

Screening data as filed in PubChem BioAssay.

This is a subset; rates above refer to the full screens.
